FGF22 binding: binders of human FGF22 protein, primary screen, FGF22 synaptogenesis inhibitor project, biophysical, thermal shift, single point. AID 651658, 2012. calls only at 9.99 µM. Fibroblast growth factor 22 (Homo sapiens), Q9HCT0. recombinant FGF22 thermal shift, SYPRO orange fluorescence; percent of sucrose octasulfate shift, DMSO zero. 1.5% of 340,000 active;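 active means melting point raised past a set limit in the mean and every replicate; inconclusive means no clear call; three in four hits are not shown here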
Target sequence (Q9HCT0 whole entry, looked up): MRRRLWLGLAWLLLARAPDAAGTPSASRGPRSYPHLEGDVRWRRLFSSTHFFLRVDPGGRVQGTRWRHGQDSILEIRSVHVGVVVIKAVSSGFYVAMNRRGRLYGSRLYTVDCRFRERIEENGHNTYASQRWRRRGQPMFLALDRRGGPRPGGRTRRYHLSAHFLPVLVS
rRNA inh HTS: reduced GFP signal of wild-type E. coli, primary screen, bacterial rRNA inhibitor project, GFP/RFP fluorescence, OD600, single point; E. coli WT GFP vs humanized-ribosome RFP mutants, 24 h; stronger effect = lower value; DMSO median 0, no signal -100; GFP signal change (wild-type ribosome), % (test concentration not listed); 1.6% of 350,000 active;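 active means significant combined selectivity score with lowered wild-type GFP, culture density cut under 30%, mutant RFP and density less affected; inactive means any of these conditions unmet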; further: one replicate is shown; some compounds called inactive have numbers as strong as hits
MLL AF4-AF9 inh: inhibitors of AF4 peptide binding to AF9, primary screen, biochemical, AlphaScreen, biotin-AF4 peptide, FLAG-AF9, single point; Protein AF-9 (Homo sapiens), P42568; inhibition, % at 10 µM; 0.47% of 350,000 active;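 active means every replicate reaching a set inhibition limit, whatever the replicate mean, cut at about 25% in these data; inconclusive means mean inhibition reaches that limit but some replicates miss it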;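 further: 0% = plate neutral control median and 100% = total signal loss; the record names both 10 and 1 µM as test concentration; the first replicate is given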
Target sequence (P42568 whole entry, looked up): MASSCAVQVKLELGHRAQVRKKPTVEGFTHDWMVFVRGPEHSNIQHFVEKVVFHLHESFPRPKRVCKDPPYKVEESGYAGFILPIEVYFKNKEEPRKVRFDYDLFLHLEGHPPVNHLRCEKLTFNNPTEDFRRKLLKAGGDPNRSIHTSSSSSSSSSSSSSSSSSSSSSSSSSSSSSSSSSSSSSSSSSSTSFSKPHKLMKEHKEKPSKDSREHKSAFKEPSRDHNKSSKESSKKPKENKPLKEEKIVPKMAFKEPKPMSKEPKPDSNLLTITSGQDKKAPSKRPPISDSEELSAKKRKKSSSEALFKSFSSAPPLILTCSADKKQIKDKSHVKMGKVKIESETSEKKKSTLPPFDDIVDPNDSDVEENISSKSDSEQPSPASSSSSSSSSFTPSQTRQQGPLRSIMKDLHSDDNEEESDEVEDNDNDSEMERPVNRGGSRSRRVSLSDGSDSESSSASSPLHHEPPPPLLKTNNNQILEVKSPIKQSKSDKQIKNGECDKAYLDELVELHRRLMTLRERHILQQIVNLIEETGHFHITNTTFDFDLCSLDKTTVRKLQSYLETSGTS
rRNA inh HTS OD600: further read-out of rRNA inh HTS, marked with its call; OD600 change, %; measured here: OD600 growth;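 optical density of the mix in the first replicate; 0 = DMSO median and -100 = no signal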
rRNA inh HTS RFP: second read-out of rRNA inh HTS, no call of its own (marks repeat the call); RFP signal change, %; measured here: RFP humanized mutant strains;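 first replicate; 0 = DMSO median and -100 = no signal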
Active calls of the source: *; i = inactive; u = inconclusive; & = joins results of further samples.

The line under a structure holds: rRNA inh HTS OD600	rRNA inh HTS	MLL AF4-AF9 inh	rRNA inh HTS RFP	FGF22 binding
CC=Cc1ccc2n(c1=O)C[C@@H]1[C@@H](CO)[C@H](C(=O)N3CCOCC3)N(CC3CC3)[C@H]21 (mixture of isomers)
    -3	1	0.3	1.0	i
C[C@@H]1CN([C@@H](C)CO)C(=O)c2cc(NC(=O)CCCCCC(=O)Nc3ccccc3N)ccc2O[C@@H]1CN(C)C(=O)Nc1ccc(C(F)(F)F)cc1
    -10	-9	-1.9	-3.7	i
CCCN(C)C[C@H]1Oc2cc(-c3cncnc3)ccc2S(=O)(=O)N([C@H](C)CO)C[C@H]1C
    16	3	-2.2	0.5	i
C=CCNc1oc(-c2cccc(F)c2)nc1C#N
    -1	-17	16	-5.7	i
CNC[C@H]1Oc2c(NS(=O)(=O)c3ccc(C)cc3)cccc2C(=O)N([C@@H](C)CO)C[C@@H]1C
    4	4	-0.7	0.2	i
O=C(NCc1cccc(Cl)c1)C1Cc2c(-c3cccc(F)c3)ccnc2O1 (configuration not stated)
    6	-2	-7.9	-2.3	i
CCN(CC)CCCNc1nc2ccccc2c2[nH]c3ccc(OC)cc3c12
    -56	-27	u	-3.6	i
CCCNC(=O)N[C@H]1CC[C@@H](CCn2cc(-c3cccc(F)c3)nn2)O[C@@H]1CO
    -1&12	1&4	-0.6&-1.9	1.3&0.1	i
O=C(C[C@@H]1C=C[C@H](NC(=O)c2cnccn2)[C@H](CO)O1)NCc1ccccc1F
    -4	-4	-1.3	0.9	i
O=C(C[C@@H]1CC[C@@H](NS(=O)(=O)c2ccccc2)[C@@H](CO)O1)NCc1ccccc1F
    2	1	-1.4	-1.2	i
C[C@@H]1CCCCO[C@@H](CN(C)C(=O)NC2CCCCC2)[C@H](C)CN([C@@H](C)CO)C(=O)c2cc(N(C)C)ccc2O1
    3	-3	8.2	1.3	i
COC(=O)c1cc(=O)nc(NN=C2c3ccccc3-c3ccccc32)s1
    11	4	0.4	-2.9	i
CCOC(=O)[C@]12CCC=C1N(Cc1ccccc1)C(=O)[C@H](CC(=O)N1CCOCC1)C2
    9	14	-4.6	2.5	i
O=C(NCCCc1ccccc1)c1cccc(NC(=O)C2CC2)c1
    -10	-18	-1.4	-5.2	i
CO[C@@H]1CN(C)C(=O)c2cc(NC(=O)c3ccccc3F)ccc2OC[C@H](C)NC[C@@H]1C
    1	2	-3.0	-1.0	i
CC(C)NC(=O)N(C)C[C@@H]1Oc2cc(C#CC3CC3)ccc2S(=O)(=O)N([C@@H](C)CO)C[C@@H]1C
    6	2	-1.4	2.5	i
CCC(=O)Nc1ccc2c(c1)OC[C@@H](C)N(Cc1cncnc1)C[C@H](C)[C@@H](OC)CN(C)C2=O
    -1	2	-2.3	-4.2	i
CO[C@H]1CN(C)C(=O)c2cc(NC(=O)C3CC3)ccc2OC[C@@H](C)N(Cc2cccnc2)C[C@H]1C
    7	-2	0.2	-1.7	i
C[C@@H]1CN([C@H](C)CO)C(=O)c2cc(NC(=O)Cn3cnnn3)ccc2O[C@H]1CN(C)S(=O)(=O)c1cn(C)cn1
    -2	2	-5.7	0.1	i
O=C(C[C@H]1CC[C@H]2[C@@H](COC[C@H](O)CN2C(=O)c2cnccn2)O1)NCc1ccc(F)cc1
    18	8	-2.1	-5.0	i
O=C(NCC[C@@H]1CC[C@@H](NS(=O)(=O)c2ccc(Cl)cc2)[C@@H](CO)O1)c1ccccc1F
    3	1	-2.0	2.4	i
CCN(CC)c1ccc(S(=O)(=O)N2CCOCC2)cc1NC(=O)COC(=O)/C=C/c1ccco1
    -13	-7	9.6	1.7	i
COc1ccc(C#Cc2ccc3c(c2)[C@H]2[C@H](CCN2C(=O)c2cccc(F)c2)[C@@H](CO)N3)cc1
    12	-3	0.7	-2.7	i
Cc1cccc(CN(C)C[C@H]2OCc3cn(nn3)CCCC(=O)N([C@@H](C)CO)C[C@@H]2C)c1
    0	0	-2.3	0.2	i
CCCCc1c(-c2ccccc2OC)ncn1Cc1cccc(OC)c1
    -79	-55	11	-17	i
O=C(C[C@@H]1C[C@H]2c3cc(NC(=O)C4CCOCC4)ccc3O[C@H]2[C@@H](CO)O1)NCc1ccccc1
    2	1	-2.0	1.1	i
CCN(C(=O)COC(=O)c1ccccc1Cc1ccccc1)c1c(N)n(Cc2ccccc2)c(=O)[nH]c1=O
    -9	-5	-2.2	1.3	i
CN1CCN(C(=O)c2cnc(Cc3c[nH]c4ccccc34)c(I)c2)CC1
    -8	-8	3.7	1.6	i
C[C@H]1CN([C@@H](C)CO)C(=O)c2cc(C#Cc3ccccn3)cnc2O[C@@H]1CN(C)C(=O)CCN1CCCCC1
    1	2	0.1	4.1	i
COc1cccc(S(=O)(=O)N2CCC3(CC2)CN(C(=O)Nc2ccc(F)cc2)[C@@H](CO)c2[nH]c4cc(OC)ccc4c23)c1
    3	2	-12	-2.0	i

Reformatted: results already given.
CCN(CC)CCCNc1nc2ccccc2c2[nH]c3ccc(OC)cc3c12
  rRNA inh HTS OD600 = -56 | rRNA inh HTS = -27 | MLL AF4-AF9 inh = u | rRNA inh HTS RFP = -3.6 | FGF22 binding = i

CCCNC(=O)N[C@H]1CC[C@@H](CCn2cc(-c3cccc(F)c3)nn2)O[C@@H]1CO
  rRNA inh HTS OD600 = -1&12 | rRNA inh HTS = 1&4 | MLL AF4-AF9 inh = -0.6&-1.9 | rRNA inh HTS RFP = 1.3&0.1 | FGF22 binding = i

More entries.
The line under a structure holds: rRNA inh HTS OD600	rRNA inh HTS	MLL AF4-AF9 inh	rRNA inh HTS RFP	FGF22 binding
CCCC(=O)Nc1ccc2c(c1)C(=O)N(C)[C@@H]1CC[C@@H](CC(=O)NCC3CC3)O[C@@H]1CO2
    5	3	-1.3	-0.1	i
O=c1oc(=S)oc2c1[C@H](c1ccc(Cl)cc1)O[C@H](C1CCCC1)C2
    -9	-10	-8.6	-5.5	i
CN(C)CC(=O)Nc1ccc2c(c1)[C@@H]1C[C@H](CC(=O)NCc3cccnc3)O[C@H](CO)[C@@H]1O2
    4	0	0.2	-2.6	i
CCn1c(SCC(=O)NC2CC2)nc2ccccc21
    2	3	-3.0	1.0	i
CN(C)c1ccc(-c2csc(C(C)(O)c3ccccc3)n2)cc1 (configuration not stated)
    -28	-18	u	-3.1	i
CC(C)CNC(=O)C1(C)CCCN1C(=O)c1cccnc1 (configuration not stated)
    13	7	-1.8	-5.0	i
C[C@@H]1CN([C@H](C)CO)C(=O)Cc2cc(NS(=O)(=O)c3ccccc3)ccc2O[C@@H]1CN(C)Cc1ccc(Cl)c(Cl)c1
    -6	3	-0.8	2.7	i
O=S(=O)(O)c1cc(O)c(N=Nc2ccc(O)cc2O)c2ccccc12
    9	-45	34*	42	i
O=C(C[C@@H]1C[C@H]2c3cc(NC(=O)C4CCOCC4)ccc3O[C@H]2[C@H](CO)O1)NCc1cccc(F)c1
    -1	1	-5.5	0.9	i
C[C@H]1CN([C@@H](C)CO)C(=O)c2cc(NC(=O)Cc3cn(C)c4ccccc34)ccc2O[C@H]1CN(C)CC1CC1
    -1	0	9.7	-1.0	i
CCC(=O)Nc1ccc2c(c1)C(=O)N(C)[C@@H]1CC[C@H](CC(=O)Nc3cccc(OC)c3)O[C@H]1CO2
    3	3	0.0	0.2	i
CC(=O)Nc1ccc(C(=O)N2CCCCC2c2cc(C(=O)NCc3ccccc3)no2)cc1 (configuration not stated)
    5	7	0.0	3.4	i
COc1ccc(NC(=O)N(C)C[C@@H]2Oc3ccc(NC(=O)CCN4CCOCC4)cc3CC(=O)N([C@@H](C)CO)C[C@@H]2C)cc1
    8	-2	-1.7	-1.5	i
O=C(C[C@H]1CC[C@@H]2[C@H](COC[C@H](O)CN2Cc2nccs2)O1)NCc1ccccc1
    13	-2	-1.1	-6.7	i
C[C@@H]1CCCCO[C@H](CN(C)C(=O)Nc2ccc3c(c2)OCO3)[C@@H](C)CN([C@H](C)CO)C(=O)c2cc(NC(=O)c3ccccc3)ccc2O1
    -1	-3	0.5	1.1	i
Cc1ccc(S(=O)(=O)Nc2ccc3c(c2)C(=O)N(C)[C@H]2CC[C@H](CC(=O)O)O[C@H]2CO3)cc1
    9	2	0.2	-2.1	i
COc1ccccc1C(CNC(=O)c1cccc(S(=O)(=O)N2CCCc3ccccc32)c1)N(C)C (configuration not stated)
    -39	-8	4.7	1.8	i
C[C@@H]1CCCCO[C@@H](CN(C)S(=O)(=O)c2cccs2)[C@H](C)CN([C@@H](C)CO)C(=O)c2cc(NS(=O)(=O)c3ccc(F)cc3)ccc2O1
    -1	-1	-4.8	-0.5	i
COc1cc(-c2cc3nc(NCc4cccs4)ccn3n2)cc(OC)c1OC
    -27	-14	1.1	0.4	i
COCC(=O)N(C)C[C@H]1Oc2cc(-c3cccnc3)ccc2S(=O)(=O)N([C@@H](C)CO)C[C@H]1C
    2	4	1.5	-2.7	i
O=C(Nc1ccc(S(=O)(=O)Nc2nccs2)cc1)c1ccncc1
    12	10	-4.5	-0.5	i
C[C@H]1CN([C@@H](C)CO)S(=O)(=O)c2ccc(C#CC(C)(C)O)cc2O[C@H]1CN(C)Cc1ccccc1
    6&4	3&1	-2.5&-2.1&-0.9	8.8&-2.5	i
COc1ccc(-n2c(C)cc(C3=NNC(=NC4CC4)SC3)c2C)cc1
    10	8	2.8	-5.6	i
O=S(=O)(N[C@@H]1CC[C@H](CCn2cc(-c3cccc(F)c3)nn2)O[C@@H]1CO)c1ccc(F)cc1
    -17	-7	-1.9	-0.9	i
Cc1ccc(-c2ccc([C@H]3[C@@H](CO)N4CCCCN(C(=O)c5ccc(F)cc5)C[C@H]34)cc2)cc1
    -79	-59	3.4	-16	i
C[C@H]1CCCCO[C@H](CN(C)Cc2ccncc2)[C@@H](C)CN([C@@H](C)CO)C(=O)c2cc(N(C)C)ccc2O1
    0	3	1.3	0.4	i
Cc1ccc([C@H]2C[C@@H](n3cc(C4CC4)nn3)[C@H](O)CN2C(=O)c2cccs2)cc1
    13	4	-5.6	-3.2	i
CNC[C@@H]1OCCCC[C@H](C)Oc2ccc(NC(=O)Nc3ccc(F)cc3)cc2C(=O)N([C@@H](C)CO)C[C@H]1C
    3	8	0.5	-1.4	i
C[C@H](O)C#Cc1cnc2c(c1)C(=O)N([C@H](C)CO)C[C@H](C)[C@H](CN(C)C(=O)c1ccccc1)O2
    1	3	-0.4	-4.1	i
CO[C@@H]1CN(C)C(=O)c2ccc(NC(C)=O)cc2OC[C@@H](C)N(C(=O)c2cccnc2)C[C@@H]1C
    3	3	1.8	-1.0	i

(next part)
The line under a structure holds: rRNA inh HTS OD600	rRNA inh HTS	MLL AF4-AF9 inh	rRNA inh HTS RFP	FGF22 binding
COc1ccc(NC(=O)Nc2cccc3c2O[C@@H](CN(C)S(=O)(=O)c2ccc(OC)cc2)[C@@H](C)CN([C@H](C)CO)C3=O)cc1
    -8	-3	2.6	-1.1	i
COc1ccc(CN2C(=O)c3ccccc3C2c2nnnn2Cc2ccccc2)cc1OC (configuration not stated)
    -3	-6	2.1	4.2	i
CCOC(=O)c1c(NC(=O)COC(=O)c2cccc([N+](=O)[O-])c2)sc(C(=O)N(C)C)c1C
    5	5	-2.2	5.1	i
Cc1ccccc1S(=O)(=O)N1C[C@@H](O)COC[C@H]2O[C@@H](CC(=O)NCCc3ccccc3)CC[C@@H]21
    6	3	7.4	-2.8	i
CCC(=O)Nc1ccc2c(c1)C(=O)N(C)C[C@@H](OC)[C@@H](C)CN(C(=O)NC(C)C)[C@H](C)CO2
    9	4	-1.4	-1.0	i
COc1cccc(/C=C/c2nc(S(=O)(=O)c3ccccc3)c(N3CCC(C(N)=O)CC3)o2)c1
    17	16	0.0	0.2	i

Entries of single compounds, looked up by structure:
`COc1ccc(CN2C(=O)c3ccccc3C2c2nnnn2Cc2ccccc2)cc1OC` (configuration not stated) as listed: rRNA inh HTS OD600: -3; rRNA inh HTS: -6; MLL AF4-AF9 inh: 2.1; rRNA inh HTS RFP: 4.2; FGF22 binding: i
`COc1cccc(/C=C/c2nc(S(=O)(=O)c3ccccc3)c(N3CCC(C(N)=O)CC3)o2)c1` as listed: rRNA inh HTS OD600: 17; rRNA inh HTS: 16; MLL AF4-AF9 inh: 0.0; rRNA inh HTS RFP: 0.2; FGF22 binding: i

This is a subset (hit frequency here may not be typical).
